GIRK2 activ – activators of human GIRK2 potassium channels. HEK293-GIRK2 thallium flux, Thallos fluorescence. G protein-activated inward rectifier potassium channel 2 (Homo sapiens), P48051. calls only for hits at 25 µM. actives 0.05% (n = 63,000). AID 1259325, 2017;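 active = among the strongest 0.2% of first-round signals and kept after retests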;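 also: first round at about 10 µM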
Target sequence (P48051 whole entry, looked up): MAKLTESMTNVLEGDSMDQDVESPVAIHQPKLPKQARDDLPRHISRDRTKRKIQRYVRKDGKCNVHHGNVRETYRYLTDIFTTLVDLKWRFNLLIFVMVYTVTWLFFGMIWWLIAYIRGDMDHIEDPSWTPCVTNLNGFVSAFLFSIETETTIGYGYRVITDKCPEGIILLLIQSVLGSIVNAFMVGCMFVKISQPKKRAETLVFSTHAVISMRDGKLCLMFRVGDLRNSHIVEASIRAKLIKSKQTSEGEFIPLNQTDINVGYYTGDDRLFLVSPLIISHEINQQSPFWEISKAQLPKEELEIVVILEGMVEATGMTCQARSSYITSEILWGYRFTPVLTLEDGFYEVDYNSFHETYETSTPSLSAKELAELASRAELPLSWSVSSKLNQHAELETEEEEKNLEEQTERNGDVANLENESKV
Calls only; i = inactive; + = active, no number. These rows are one share of the data; count on the stated rates, not on these rows.

SMILES | GIRK2 activ
O=C(CCCSc1ccc(NC(=O)c2ccco2)nn1)NCc1cccs1 | i
COCCn1c(-n2nc(C)cc2C)nc2c1c(=O)n(Cc1ccccc1)c(=O)n2C | i
COc1ccc(NC(=O)c2csc(Cc3nc(-c4ccccc4)no3)n2)cc1Cl | i
Cc1ccc(NC(=O)CN2CCC(COCc3ccc(C#N)cc3)CC2)cc1C | i
CCCc1cc(=O)[nH]c(-n2nc(C3CC3)cc2NC(=O)c2cc(-c3ccccc3)on2)n1 | i
O=C(c1ccc(=O)[nH]c1)N1CC(c2nc(-c3cccc(C(F)(F)F)c3)no2)C1 | i
O=C(NC1CC(O)C(CO)C1)c1ccc(Cl)s1 (centres undefined) | i
CCOC(=O)C1CCCN(c2ncc3c(=O)n(Cc4ccccc4F)c(=O)[nH]c3n2)C1 (centres undefined) | i
C[C@]12CCC(=O)C=C1CC[C@@H]1[C@@H]2[C@@H](O)C[C@@]2(C)[C@H]1CC[C@]2(O)C(=O)CO | i
CCc1nnc(C2CCN(C(=O)c3ccco3)CC2)s1 | i
COc1ccc(OC)c2sc(N(CCN(C)C)C(=O)c3cc(C)nn3C)nc12 | i
N#Cc1ccsc1NC(=O)Nc1ccc2c(c1)OCO2 | i
CCc1ccc(S(=O)(=O)NCCN2CCN(c3ccccc3)CC2)s1 | i
CC1CN(C2CCCCC2)c2nc3c(c(=O)n(CC(N)=O)c(=O)n3C)n2C1 (centres undefined) | i
COc1cc2[nH]c3c(=O)n(CC(=O)Nc4ccc(C(C)C)cc4)cnc3c2cc1OC | i
CCOC(=O)Cc1csc(NC(=O)c2ccc(-n3ccnc3)nn2)n1 | i
O=C(O)/C=C/C(=O)Nc1ccc(C(=O)O)c(O)c1 | i
COc1nn(C)cc1C(=O)NCC(O)c1ccc2c(c1)CCO2 (centres undefined) | i
C=CCn1c(=O)c2ccc(C(=O)NC(C)C)cc2n2c(=O)n(CC(=O)NCCc3ccccc3)nc12 | i
Cc1nnc(NC(=O)CN2CCC(c3nnc(C(F)(F)F)o3)CC2)s1 | i
N#Cc1nc(-c2ccc(S(=O)(=O)N3CCOCC3)cc2)oc1NCc1ccccc1 | i
COc1ccc(OCC(O)Cn2c(NCCC(C)C)nc3c2c(=O)n(C)c(=O)n3C)cc1 (centres undefined) | i
Cc1ccc(Cl)cc1N1CCN(C(=O)c2sc(Nc3ccc(F)cn3)nc2C)CC1 | i
CCOc1ccc(-c2c(C#N)c(N)nc3c2CN(Cc2ccccc2)CC3)cc1 | i
Cc1cc(-n2cc(C(=O)N3CCC(NC(=O)c4ccncc4)CC3)nn2)ccc1F | i
O=C1[C@H]2CCCC[C@H]2C(=O)N1CCCCN1CCN(c2nsc3ccccc23)CC1 | i
COc1cccc2cc(C(=O)N3CCOCC3CN(C)CCO)oc12 (centres undefined) | i
CCCN1C(=O)CCc2cc(NC(=O)c3cccc(OC)c3OC)ccc21 | i
COc1ccc(C(=O)Nc2c(-c3cccs3)c(=O)c3ccccc3n2C)cc1 | i
Cc1ccccc1Cn1c(=O)c2c(nc3n(CCCN(C)C)c(C)c(C)n23)n(C)c1=O | i

Arranged by SMILES length (low to high): 3 of the compounds above
SMILES | GIRK2 activ
CCCN1C(=O)CCc2cc(NC(=O)c3cccc(OC)c3OC)ccc21 | i
O=C1[C@H]2CCCC[C@H]2C(=O)N1CCCCN1CCN(c2nsc3ccccc23)CC1 | i
Cc1ccccc1Cn1c(=O)c2c(nc3n(CCCN(C)C)c(C)c(C)n23)n(C)c1=O | i

(further entries)
SMILES | GIRK2 activ
Cc1cc(C)n(-c2nc(CCNS(=O)(=O)N(C)C)cs2)n1 | i
Cc1nc2sc(C(c3ccc(Cl)c(Cl)c3)N3CCCC3)c(O)n2n1 (centres undefined) | i
Cc1cc(-c2nnc(NC(=O)C3c4ccccc4Oc4ccccc43)o2)c(C)o1 | i
COc1ccccc1-c1cn2nnc(C(=O)NCc3c(C)noc3C)c2c(=O)[nH]1 | i
O=C(Nc1ccc2c(c1)CCCN2C(=O)C1CC1)c1ccsc1 | i
Cc1ccc(-n2ncc3c(C)nnc(SCC(=O)NC4CCCCC4)c32)cc1 | i
COc1ccccc1/C=C1\Oc2cc(OS(C)(=O)=O)ccc2C1=O | i
Cc1oc2cc(OS(C)(=O)=O)ccc2c(=O)c1-c1ccc(Br)cc1 | i
COc1ccc(NC(=O)Cc2nnc(-c3sccc3C)o2)c(OC)c1 | i
COc1cc(-c2noc(C3CC(=O)N(c4cc(C)ccc4C)C3)n2)cc(OC)c1OC (centres undefined) | i
O=S(=O)(NCCCn1ccnc1-c1ccccc1)c1ccc2c(c1)CCCC2 | i
O=c1nc2n(c3c(Cl)cc(Cl)cc13)Cc1ccccc1-2 | i
O=C(CSc1nc2scc(-c3ccco3)c2c(=O)n1-c1ccccc1)N1CCOCC1 | i
Cc1c(-c2nn3c(COc4ccccc4)nnc3s2)oc2ccccc12 | i
O=C(Cn1cnc2ccccc21)NCCCn1ccc2ccccc21 | i

6 compounds drawn at random from the list so far:
SMILES | GIRK2 activ
O=C(Cn1cnc2ccccc21)NCCCn1ccc2ccccc21 | i
COc1ccccc1/C=C1\Oc2cc(OS(C)(=O)=O)ccc2C1=O | i
Cc1ccc(-n2ncc3c(C)nnc(SCC(=O)NC4CCCCC4)c32)cc1 | i
Cc1oc2cc(OS(C)(=O)=O)ccc2c(=O)c1-c1ccc(Br)cc1 | i
COc1ccccc1-c1cn2nnc(C(=O)NCc3c(C)noc3C)c2c(=O)[nH]1 | i
COc1cc(-c2noc(C3CC(=O)N(c4cc(C)ccc4C)C3)n2)cc(OC)c1OC (centres undefined) | i

Going on with the list.
SMILES | GIRK2 activ
Cc1ccc(Cl)cc1N1CCN(S(=O)(=O)N2CCCCCC2)CC1 | i
Cc1cccc(NC(=O)Nc2ccc(CN3CCN(c4ccccn4)CC3)cc2)c1 | i
COc1ccc(NC(=O)Cn2nc3c(Oc4ccccc4C)nccn3c2=O)c(OC)c1 | i
COCCNC(=O)CN1CCN(c2ccccc2F)C1=O | i
CC(=O)COc1ccc2c(c1C)O/C(=C\c1ccc3c(c1)OCO3)C2=O | i
COc1ccc(-n2c(=O)c3ccccc3n(CC(=O)NCCc3ccc(OC)c(OC)c3)c2=O)cc1 | i
O=C(CSc1ccc(F)cc1)NC1CCCCC1N1C(=O)CSC1=O (centres undefined) | i
CCCCC/C=C\C=C\CCCCCCCCC(=O)O | i
O=C1NC(=NCc2ccccc2)S/C1=C\c1ccc2ncccc2c1 | i
Cc1nc(SC(C)c2ccccc2)[nH]c(=O)c1CC(=O)Nc1ccc(F)c(F)c1 (centres undefined) | i
CCc1nc2sc(C(c3ccc(F)c(F)c3)N3CCN(C(C)=O)CC3)c(O)n2n1 (centres undefined) | i
COc1ccc(NC(=O)Cn2ccn(-c3cccc(Cl)c3)c(=O)c2=O)cc1 | i
COc1cccc(COc2coc(C(=O)NCc3ccc(F)cc3)cc2=O)c1 | i
COc1ccc(NC(=O)C23CC4CC(C)(CC(C)(C4)C2)C3)cc1OC | i
Cc1ccc(N2CCCn3c2nc2c3c(=O)n(CC(N)=O)c(=O)n2C)cc1C | i
C/C=C/c1ccc(OCC(O)CN2CCN(Cc3ccccc3)CC2)c(OC)c1 (centres undefined) | i
CCOc1ccc(-c2cc3c(=O)n(CC(=O)NCc4ccc(OC)cc4)ncn3n2)cc1 | i
CCOc1ccc(-c2cc3c(=O)n(CC(=O)NCCc4ccc(Cl)cc4)ccn3n2)cc1 | i
COc1ccc(-c2cc3c(=O)n(CC(=O)NCCC(C)C)ccn3n2)cc1 | i
O=c1c(-c2nc(C3CC3)no2)cccn1Cc1nc(-c2ccccc2Cl)no1 | i
COC(=O)N1CCc2ccc(Br)cc2C1C(=O)Nc1nccs1 (centres undefined) | +
O=c1nc2c(-c3ccc(F)cc3Cl)n[nH]n2c2ccc(Cl)cc12 | i
COc1ccccc1C1(C(=O)NCCC(O)c2ccc3c(c2)OCO3)CCOCC1 (centres undefined) | i
Cc1ccc(N2CCn3c2nc2c3c(=O)n(CCN3CCCCC3)c(=O)n2C)cc1C | i
O=c1[nH]c(-c2cc(Br)ccc2O)nc2c1Cc1cc(Br)ccc1O2 | i
O=C1OC(C(=O)NCCc2ccccc2)Cc2ccc(Cl)cc21 (centres undefined) | i
Cc1cc(CN2CCC(CNC(=O)c3cccn(C)c3=O)CC2)c(C)o1 | i
CCN(C(=O)Cn1cnc2c(-c3ccc(OC)cc3)csc2c1=O)c1ccccc1 | i
Cc1nc(-c2nnc(NC(=O)COc3ccc(Cl)cc3Cl)o2)cs1 | i
COC(=O)c1sc2cccc(F)c2c1S(=O)(=O)NCc1ccc(F)cc1 | i
CS(=O)(=O)c1ccc(Nc2nc(CC(=O)NCc3cccs3)cs2)cc1 | i
Cc1ccc(NC(=O)C2CCCN(Cc3nc(-c4ccncc4)no3)C2)cc1F (centres undefined) | i
Nc1ccc(S(=O)(=O)N2CCCCCC2)cc1 | i
Cc1ccc(Cl)cc1N1CCN(Cc2nc3c([nH]2)c(=O)n(C)c(=O)n3C)CC1 | i
Cc1nc(-n2nc(C3CC3)cc2NC(=O)c2cccc(F)c2)[nH]c(=O)c1C | i
NC(=O)CSc1nnc(Cc2c[nH]c3ccccc23)o1 | i
CC1Oc2ccccc2OC1C(=O)Nc1sc2c(c1C#N)CCCC2 (centres undefined) | i
O=C(CSc1nc(-c2cccs2)cc(C(F)(F)F)n1)c1ccc2c(c1)OCO2 | i
Cc1ccc2c(Nc3ccc(S(N)(=O)=O)cc3)c(C(=O)N3CCCC3)cnc2n1 | i
Nc1nc(N2CCc3ccccc3C2)ncc1[N+](=O)[O-] | i
CC(=O)Nc1ccc(S(=O)(=O)NCC2CCN(S(=O)(=O)c3cccnc3)CC2)c(C)c1 | i
COc1cccc(-c2c(NC(=O)c3ccco3)n(C)c3ccccc3c2=O)c1 | i
CC1Oc2ccc(-c3csc(NC(=O)C(Cl)(Cl)Cl)n3)cc2N(C)C1=O (centres undefined) | i
COc1ccccc1C1(C(=O)Nc2ccc3c(c2)C(=O)NCC3)CCOCC1 | i
CCOc1ccc(-n2c(N3CCCCC3)nc3cc(C(=O)OC)ccc3c2=O)cc1 | i
O=C(/C=C/c1cccs1)N1CC(Oc2nc3c(F)cccc3s2)C1 | i
N#CC(N)Cc1ccccc1 (centres undefined) | i
CCOc1ccc(C(=O)Nc2ccc3c(c2)CCCN3C(=O)c2ccccc2)cc1OCC | i
COc1ccc(-c2cnc(SCC(=O)NC(C)C)n2-c2ccccc2)cc1 | i
COc1ccc(C)cc1NC(=O)Nc1ccc(Nc2cc(-n3cccn3)nc(C)n2)cc1 | i
CCCCc1ccc(N2CC(C)Cn3c2nc2c3c(=O)n(C)c(=O)n2C)cc1 (centres undefined) | i
Cc1nc(-c2ccccc2)cc2nn(CC(=O)NCc3ccc(F)cc3F)c(=O)n12 | i
O=C(NCc1cccs1)N1CCN(Cc2nnnn2-c2ccc(F)c(F)c2)CC1 | i
O=C(NCCN1CCN(c2ccccc2)CC1)C(=O)Nc1cccc(C(F)(F)F)c1 | i
Cc1ccc(OCC(O)Cn2c(NCCN(C)C)nc3c2c(=O)n(C)c(=O)n3C)cc1 (centres undefined) | i
O=S(=O)(c1ccc2ccccc2c1)N1CCC(Oc2cccnc2)CC1 | i
N#Cc1ccc(OC2CCN(C(=O)c3ccc4ncsc4c3)CC2)nc1 | i
CNC(=O)CSc1cnn(CC(=O)Nc2cccc(Br)c2)c(=O)c1Cl | i
COc1cc(O)c(O)c(OC)c1C(=O)/C=C/c1ccccc1 | i
Cc1ccc(-n2cc(C(=O)N3CCc4ccccc4C3)nn2)cc1C | i

New compounds follow
SMILES | GIRK2 activ
O=C(Nc1nc(-c2cc3ccccc3o2)cs1)c1cccc(F)c1 | i
COc1cc(NS(=O)(=O)c2ccc(NC(=O)c3ccc(-c4ccccc4)cc3)cc2)ncn1 | i
O=C(NCCn1cnc(-c2ccccc2)cc1=O)c1ccc(Cn2ccnc2)cc1 | i
CCn1c(SCC(=O)Nc2ccc(OC)c(Cl)c2)nc2c3cc(OC)ccc3n(C)c2c1=O | i
O=C(Nc1ccc2c(c1)OCO2)C1CCN(S(=O)(=O)c2ccc(F)cc2)CC1 | i
COc1ccc(NC(=O)CSC2=Nc3ccccc3N=C(c3ccccn3)C2)cc1 | i
Cc1cccc(CS(=O)(=O)NCC2CCN(C(=O)c3ccoc3)CC2)c1 | i
C[N+]1(CC(O)COc2ccc(C34CC5CC(CC(C5)C3)C4)cc2)CCCC1 (centres undefined) | i
COc1ccc(N2CCN(C(=O)CCCn3cccc3)CC2)nn1 | i
Cc1ccc(C2CC3C4NN=C(CCC(=O)NCc5cccs5)N4C=CN3N2)cc1C (centres undefined) | i
COc1c(Cl)ccc(Cl)c1C(=O)NC(C)C | i
CC(=O)Nc1ccc(Nc2c(C(=O)N3CCSCC3)cnc3nc(C)ccc23)cc1 | i
COc1ccc(CN2CC(O)=C(c3nc4ccccc4[nH]3)C2=N)cc1OC | i
COc1ccc(N2CCCn3c2nc2c3c(=O)n(CC(C)C)c(=O)n2C)c(OC)c1 | i
CN1CCN(c2nnc(SCC(=O)Nc3ccc(Cl)c(Cl)c3)s2)CC1 | i
COc1ccc(CCS(=O)(=O)NCC2(c3ccccc3)CCOCC2)cc1 | i
Cc1sc2ncnc(SCC(=O)NCC3CCCO3)c2c1-c1ccc(Cl)cc1 (centres undefined) | i
O=C(C1CC(=O)N(c2ccc(F)cc2)C1)N1CC(c2nc(-c3ccccn3)no2)C1 (centres undefined) | i
COC(=O)c1sccc1S(=O)(=O)Nc1ccc2c(c1)CN(C(=O)c1cccs1)CC2 | i
COC(=O)Cn1c(=O)c2c(nc3n(-c4ccc(C(F)(F)F)cc4)c(C)c(C)n23)n(C)c1=O | i
Cc1ccc(NC(=O)Cn2cc(S(=O)(=O)c3ccc(C)cc3)c(=O)c3ccccc32)cc1 | i
